# Screening data deposited in PubChem BioAssay by Broad Institute.
# MLL AF4-AF9 inh = MLL-AF4/AF9 protein interaction inhibition; AlphaScreen, biotin-AF4 peptide binding to FLAG-AF9; actives 0.47% (n = 350,000); AID 651704; inhibition, % at 10 µM; P42568;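 active = every replicate reaching a set inhibition limit, whatever the replicate mean, cut at about 25% in these data; inconclusive = mean inhibition reaches that limit but some replicates miss it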;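 note: 0% = plate neutral control median and 100% = total signal loss; the record names both 10 and 1 µM as test concentration; the first replicate is given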
# Target sequence (P42568 whole entry, looked up): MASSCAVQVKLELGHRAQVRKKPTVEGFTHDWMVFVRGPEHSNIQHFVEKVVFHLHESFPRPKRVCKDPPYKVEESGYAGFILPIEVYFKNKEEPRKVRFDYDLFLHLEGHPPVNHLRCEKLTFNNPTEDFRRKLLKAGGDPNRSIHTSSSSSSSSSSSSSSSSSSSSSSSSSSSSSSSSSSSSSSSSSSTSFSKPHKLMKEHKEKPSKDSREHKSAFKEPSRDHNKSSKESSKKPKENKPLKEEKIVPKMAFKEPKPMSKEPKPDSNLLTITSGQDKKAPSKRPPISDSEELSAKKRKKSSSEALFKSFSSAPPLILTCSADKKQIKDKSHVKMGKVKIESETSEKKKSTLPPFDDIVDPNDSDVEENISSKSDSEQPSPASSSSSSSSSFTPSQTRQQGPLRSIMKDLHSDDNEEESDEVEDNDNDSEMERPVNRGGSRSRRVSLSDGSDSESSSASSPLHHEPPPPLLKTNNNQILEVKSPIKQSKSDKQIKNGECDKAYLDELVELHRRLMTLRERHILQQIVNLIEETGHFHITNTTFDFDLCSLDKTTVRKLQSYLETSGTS
# ALR inh = human ALR oxidase inhibition via reduced H2O2. AID 485317. P55789. purified ALR, DTT oxidation, H2O2 HRP-luminol luminescence. inhibition, % (test concentration not listed). actives 3.8% (n = 290,000);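 active = mean and each replicate at 75% or more; inconclusive = only one of the two met; inactive = neither met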;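 note: stock transfer was 7.5 nL into about 7.5 µL; 0% = neutral wells and 100% = wells with inactivated enzyme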
# Target sequence (P55789 whole entry, looked up): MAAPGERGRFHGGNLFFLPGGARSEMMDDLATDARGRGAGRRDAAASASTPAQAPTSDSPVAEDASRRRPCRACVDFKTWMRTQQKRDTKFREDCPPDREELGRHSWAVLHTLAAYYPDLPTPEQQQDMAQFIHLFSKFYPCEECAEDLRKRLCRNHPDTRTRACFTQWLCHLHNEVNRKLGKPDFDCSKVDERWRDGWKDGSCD
# Beta apoptosis = beta cell apoptosis inhibition | INS-1E cytokine-induced death, ATP luminescence, 48 h; percent of positive-control rescue, neutral wells zero | protection from apoptosis, % (no concentration beside the values) | actives 0.8% (n = 300,000) | AID 435005;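 active = all replicates at 75% or more, or half of them and the mean; inconclusive = half reach 75% but not the mean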;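 note: 0% = cytokine-treated negative control wells and 100% = positive control rescue; higher means more ATP so stronger rescue from cytokine killing; wells of about 40 µL received 100 nL stock; the first replicate is given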
# RanGTP-Impb inh = disruptors of Ran-importin-beta complex formation – biochemical, FRET, CFP-Ran, YFP-importin-beta, homogeneous, primary screen | cell-free CFP-Ran/YFP-importin-beta FRET ratio | inhibition, % (no concentration beside the values) | actives 1.1% (n = 300,000) | AID 2216;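 active = most replicates above 15%; inconclusive = exactly half above 15%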;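 note: 0% = DMSO wells and 100% = Ran loaded with GDP instead of GTP; wells of about 40 µL received 100 nL stock; the first replicate is given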
# FGF22 binding = shifts melting point of recombinant human FGF22 | Q9HCT0 | AID 651658 | recombinant FGF22 thermal shift, SYPRO orange fluorescence; percent of sucrose octasulfate shift, DMSO zero | actives 1.5% (n = 340,000) | calls only at 9.99 µM;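 active = melting point raised past a set limit in the mean and every replicate; inconclusive = no clear call; three in four hits are not shown here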
# Target sequence (Q9HCT0 whole entry, looked up): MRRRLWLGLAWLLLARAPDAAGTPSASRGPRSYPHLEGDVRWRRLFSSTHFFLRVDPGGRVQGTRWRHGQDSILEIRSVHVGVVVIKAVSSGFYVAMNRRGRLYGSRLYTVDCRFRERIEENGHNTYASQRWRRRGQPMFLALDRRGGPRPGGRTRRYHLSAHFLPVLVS
# Calb FLC = affects C. albicans growth with fluconazole; C. albicans CaCi-2 (fluconazole-resistant clinical isolate) + fluconazole, Alamar Blue growth, 48 h; growth inhibition, % (concentration not given with the values); actives 0.57% (n = 300,000);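 active = most replicates above 75%; inconclusive = exactly half above 75%; inactive = most below 75%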;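 note: all wells also contain fluconazole at 8 µg/ml as a sub-toxic cotreatment; 0% = median of DMSO wells and 100% = median of geldanamycin control wells; wells of about 8 µL received 7.5 nL stock; the first replicate is given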
# T cruzi inh = T. cruzi replication inhibition; T. cruzi beta-gal in NIH3T3, luminescence, 90 h; actives 1.4% (n = 300,000); AID 1885; inhibition, % (concentration not given with the values);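 active = mean inhibition across valid replicates above about 55%, limit read from the data; inconclusive = mean below that limit but half or more replicates reach it; inactive = mean below it, under half of replicates reach it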;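 note: signal also drops with host cell toxicity which is not excluded here; 0% = plate median of DMSO wells and 100% = zero luminescence signal; higher percent means less beta-gal luminescence so fewer parasites; stock transfer was 50 nL into about 50 µL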
# rRNA inh HTS = selective bacterial rRNA inhibition in E. coli; actives 1.6% (n = 350,000); E. coli WT GFP vs humanized-ribosome RFP mutants, fluorescence, 24 h; active compounds read low; DMSO median 0, no signal -100; GFP signal change (wild-type ribosome), % (concentration not given with the values);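 active = significant combined selectivity score with lowered wild-type GFP, culture density cut under 30%, mutant RFP and density less affected; inactive = any of these conditions unmet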; note: one replicate is shown; some compounds called inactive have numbers as strong as hits
# rRNA inh HTS OD600 = also measured in rRNA inh HTS; calls as there; OD600 change, %; measured here: OD600 growth;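 optical density of the mix in the first replicate; 0 = DMSO median and -100 = no signal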
# rRNA inh HTS RFP = also measured in rRNA inh HTS; calls as there; RFP signal change, %; measured here: RFP humanized mutant strains;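 first replicate; 0 = DMSO median and -100 = no signal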
# * = called active by the depositor; i = inactive; ? = inconclusive; · = no result given. Some of the compounds tested. The share of hits here may be higher or lower than overall.
SMILES,MLL AF4-AF9 inh,ALR inh,Beta apoptosis,RanGTP-Impb inh,FGF22 binding,Calb FLC,T cruzi inh,rRNA inh HTS,rRNA inh HTS OD600,rRNA inh HTS RFP
CC(C)CCN1CC(C(=O)NCc2ccccc2)CC1=O (stereo not drawn),·,-2,-1,2.9,·,-7,-4,·,·,·
CC(C)n1c(CN2CCN(C(=O)c3ccco3)CC2)nc2c1c(=O)n(C)c(=O)n2C,-0.9,-10,3,?,i,1,2,3,10,-1.2
CCN(C(=O)CSc1nnc(C)c(=O)[nH]1)c1cccc2ccccc12,1.3,-13,-1,·,i,·,·,-2,2,-2.2
CCOC(=O)c1sc(=S)n(-c2ccc(C)cc2)c1SC,·,-18,3,?,·,-11,0,·,·,·
COc1cc(/C=N/NC(=O)c2cc3ccccc3cc2O)ccc1OCCN1CCCCC1,20,20,-4,-6.0,i,4,0,·,·,·
CN(C)S(=O)(=O)c1ccc(C(=O)OCC(=O)c2ccc3c(c2)NC(=O)CO3)cc1,2.1,-3,-1,2.9,i,6,-6,11,18,3.8
COc1ccccc1N(CC(=O)Nc1ccc(Cc2ccncc2)cc1)S(=O)(=O)c1ccccc1,-6.1,-3,-1,0.2,i,10,43,-10,-9,8.7
Cc1ccc(S(=O)(=O)N2CCN(S(=O)(=O)c3c(C)n[nH]c3C)CC2)cc1C,0.1,·,-4,·,i,·,·,8,12,-2.2
Cc1nn(CC(=O)NC(=O)NC2CCCCC2C)c(=O)c(C#N)c1C (stereo not drawn),-1.6,-1,-7,?,i,-11,-8,0,-1,-1.4
O=C1C(Cc2ccc3[nH]ccc3c2)NC(=S)N1c1ccccc1 (stereo not drawn),4.2,3,-4,5.5,i,21,-7,·,·,·
Cc1ccc(-c2nc(COC(=O)C3=NN(c4ccccc4)C(=O)CC3)cs2)cc1,3.6,99*,-7,·,i,·,·,·,·,·
O=C(Nc1ccc2ncccc2c1)c1cccc(Br)c1,-1.4,13,-1,-1.0,i,4,1,2,22,-0.2
Cc1nnc(SCC(=O)Nc2ccccc2F)n1Cc1ccco1,2.3,-5,-1,-1.8,i,-2,-10,14,-2,-0.7
Cc1scc(-c2n[nH]c(=S)n2C(C)c2ccccc2)c1C (stereo not drawn),-3.3,83*,2,-0.6,i,2,-2,-55,-68,-10
COc1ccc(-c2nnn(CC(=O)N(CC(=O)NC3CCCC3)c3ccccc3)n2)cc1OC,-0.6,-5,3,-0.8,i,-6,-5,19,22,2.6
C/C(=N\Nc1ccc(Cl)c(C(=O)O)c1)c1cccc([N+](=O)[O-])c1,4.4,98*,-1,1.5,i,-5,-2,6,-4,-4.5
Cc1ccccc1C(=O)NN1C(=O)CSC1=S,-13,25,1,-1.7,i,15,-18,-2,-7,28
O=C(Nc1ccccc1)OCC1CCCN2CCCCC12 (stereo not drawn),-1.5,2,-8,?,·,-2,19,·,·,·
COC(=O)Nc1ccc(S(=O)(=O)N2CCCc3ccccc32)cc1,·,-14,27,1.4,·,24,-73,·,·,·
COc1ccc2oc(=O)c(C(=O)C[n+]3cccc(C)c3)cc2c1,0.2,10,0,-5.4,i,-5,6,7,18,0.3
CC(C)OCCCNC(=O)c1ccc(N(C)S(C)(=O)=O)cc1,·,-5,-8,-2.4,·,?,-18,·,·,·
CNC(=S)NCCc1ccc(OC)c(OC)c1,-4.5,1,-4,-2.1,i,-2,0,1,11,-2.7
CCOc1ccccc1OCCCC(=O)Nc1cccc(-n2cnnn2)c1C,-0.5,·,2,·,i,·,·,-2,-20,-5.0
Cc1nc2ccc(C(=O)O)cc2c2c1CC(C)S2 (stereo not drawn),·,100*,-6,3.5,·,13,-28,·,·,·
CCOC(=O)C1(c2csc(N)n2)COC(=O)C1 (stereo not drawn),·,1,1,-3.8,·,-21,-12,·,·,·
Cc1nc2c(c(C)nn2-c2ccccc2)c(C)c1CCC(=O)NCCCOC(C)C,2.4,-2,8,-0.7,i,4,10,-1,-6,4.8
O=C(CC1=NCCNC(c2ccccc2)C1)c1ccccc1O (stereo not drawn),19,1,-1,-5.5,i,-2,5,-26,-38,-11
CCc1sc(C(=O)N2CCN(CC(=O)Nc3cccc(F)c3)CC2)cc1C,-2.2,-6,-5,·,i,·,·,-24,-44,-4.4
COc1cccc(C2=NCCc3cc4c(cc32)OCO4)c1OC,·,-16,-1,-1.1,·,-5,8,·,·,·
Cn1c(C(=O)NCCCN2CCCC2=O)cc2c(=O)n(C)c3ccccc3c21,-0.9,-5,5,-1.7,i,9,-10,-10,-8,1.9
Cn1c(-c2ccc3c(c2)OCO3)cnc1N,·,23,-1,1.0,·,16,-15,·,·,·
CCN(CC(=O)NCc1ccc(F)cc1)CC(=O)NC1CCCC1,1.9,-3,-3,1.1,i,-3,4,10,23,0.1
COC(=O)CC1C(=O)NCCN1C(=S)NC(=O)c1sc2ccccc2c1Cl (stereo not drawn),-3.4,48,-1,-8.0,i,2,-18,-10,-2,2.3
O=C1Nc2ccc(S(=O)(=O)NCc3ccccn3)c3cccc1c23,·,·,·,6.7,·,1,-12,0,-1,-12
Cc1nn(C)c(C)c1CNC(=O)c1cc2n(n1)C(C(F)(F)F)CC(c1cccs1)N2 (stereo not drawn),12,-4,24,-4.3,i,10,-36,-2,-6,3.5
Cc1cc2nc(C3CCN(C(=S)NCCCOC(C)C)CC3)[nH]c2cc1C,-0.6,22,1,-1.5,i,-14,-16,-15,-14,2.6
COc1cccc(N2CCN(C(=O)c3cc(C)oc3C)CC2)c1,4.3,90*,8,·,i,·,·,3,0,-1.2
COc1ccc(CNC(=O)COc2ccc(C)nc2[N+](=O)[O-])cc1,0.6,0,-3,3.9,i,0,-1,8,4,-0.9
Cc1ccc(C)c(NC(=O)COc2cccc3c2CCN(Cc2ccccc2C)C3=O)c1,·,-8,7,0.5,·,17,20,·,·,·
Cc1cc(NC(=O)C2CC(=O)N(c3cccc(Cl)c3)C2)no1 (stereo not drawn),0.4,0,-3,4.7,i,3,-7,0,5,-1.7

# Ordered by molar mass (low to high): part of the list above
SMILES,MLL AF4-AF9 inh,ALR inh,Beta apoptosis,RanGTP-Impb inh,FGF22 binding,Calb FLC,T cruzi inh,rRNA inh HTS,rRNA inh HTS OD600,rRNA inh HTS RFP
Cc1nc2ccc(C(=O)O)cc2c2c1CC(C)S2 (stereo not drawn),·,100*,-6,3.5,·,13,-28,·,·,·
COc1cccc(C2=NCCc3cc4c(cc32)OCO4)c1OC,·,-16,-1,-1.1,·,-5,8,·,·,·
O=C1Nc2ccc(S(=O)(=O)NCc3ccccn3)c3cccc1c23,·,·,·,6.7,·,1,-12,0,-1,-12
Cn1c(C(=O)NCCCN2CCCC2=O)cc2c(=O)n(C)c3ccccc3c21,-0.9,-5,5,-1.7,i,9,-10,-10,-8,1.9

# (more compounds)
SMILES,MLL AF4-AF9 inh,ALR inh,Beta apoptosis,RanGTP-Impb inh,FGF22 binding,Calb FLC,T cruzi inh,rRNA inh HTS,rRNA inh HTS OD600,rRNA inh HTS RFP
Cc1ccc(S(=O)(=O)N(C)C)cc1NC(=O)COC(=O)CCC1CCCC1,-2.6,15,2,·,i,4,-2,6,10,1.1
Cn1nc(C(C)(C)C)c([N+](=O)[O-])c1C(=O)N1CCOCC1,2.8,-6,-7,1.3,i,8,0,7,13,-0.3
O=C(CSc1nccc(-c2cccs2)n1)Nc1ccc(Cl)cc1,-2.1,-7,-7,1.2,i,-3,6,-2,3,2.2
OCc1nc2ccccc2n1CCCCOc1ccccc1,-2.3,-1,2,0.0,i,-2,7,-37,-33,-1.6
C/C=C(/C)C(=O)O[C@@H]1[C@H](OC(=O)C=C(C)C)c2c(ccc3ccc(=O)oc23)OC1(C)C,-10.0,4,-2,-0.1,i,-10,7,16,13,0.4
CC1CCCCC1N1CN=C(Nc2nc3ccccc3s2)NC1 (stereo not drawn),·,0,6,0.0,·,21,30,·,·,·
O=C(NC1CCCCC1)C(=S)N1CCOCC1,-0.8,-15,2,-4.2,i,-5,-13,11,2,-1.3
O=C(CN1CCCCC1)NC1CCc2cc3c(cc21)CCC3 (stereo not drawn),1.7,2,·,2.0,i,-25,-9,-14,-3,-0.9
CCSc1nnc(C)n1-c1ccc(C(=O)O)cc1,·,-2,2,0.4,·,1,-1,·,·,·
CC(Oc1ccccc1)C(=O)N1CCN=C1SCc1ccccc1 (stereo not drawn),-1.9,1,-3,-3.6,i,-5,14,-20,-16,-8.2
CCCCNC(=O)c1cc([N+](=O)[O-])[nH]n1,·,55,6,-1.9,·,28,4,·,·,·
CS(=O)(=O)N(CC(=O)NCc1ccc2c(c1)OCO2)Cc1ccc(Cl)cc1,·,1,·,3.6,·,-6,13,·,·,·
Cc1ccc2c(c1)-n1c(nc3cc(Cl)ccc3c1=O)C(CC(C)C)NC2=O (stereo not drawn),-1.5,5,1,·,i,·,·,10,12,-9.4
O=C(CN1C(=O)c2cccc3cccc(c23)C1=O)NCCCO,-1.3,-2,·,?,i,1,5,-21,-22,6.0
O=C(O)c1nccnc1C(=O)Nc1ccccc1N1CCOCC1,-1.7,-5,1,0.7,i,-2,-4,3,0,-0.7
CCOC(=O)N1CCN(S(=O)(=O)c2ccc(F)c(C(=O)Nc3cccc(Cl)c3C)c2)CC1,·,-1,4,-1.6,·,-4,-10,·,·,·
COc1ccc(NC(=O)CSCC(=O)N2CCN(C(=O)c3ccco3)CC2)cc1,-1.9,13,-1,·,i,·,·,6,5,1.1
COc1ccc2sc(NC(=O)CC(C)C)nc2c1,·,-10,2,0.2,·,9,9,·,·,·
CCOc1ccccc1NC(=O)C(NCC1CCCCC1)c1ccccc1 (stereo not drawn),-1.6,0,2,3.1,i,0,27,-15,-15,2.4
O=C(COC(=O)/C=C/c1ccc(OC(F)F)cc1)Nc1cccc(S(=O)(=O)N2CCCC2)c1,-0.4,5,-1,-5.0,i,1,-7,-12,-5,1.3
O=C(c1cc(-c2ccc(O)cc2)on1)N1CCCCCC1,4.5,99*,-1,-0.1,i,16,-21,·,·,·
CN(CC(=O)Nc1cccc(F)c1)C(=O)c1ccc(N2CCOCC2)c([N+](=O)[O-])c1,-2.2,-11,1,-1.1,i,-6,11,4,1,-2.1
COC(=O)CCN(c1ccccc1)S(=O)(=O)c1ccc(OC)cc1,·,4,1,3.3,·,-1,-5,·,·,·
O=C(CCC1CCCCC1=O)c1ccccc1 (stereo not drawn),·,-3,-1,-4.5,·,-5,-2,3,0,-7.2
COc1cc(OC)cc(C(=O)Nc2ccccc2C(=O)NCc2cccnc2)c1,-0.8,·,-3,0.2,i,18,7,·,·,·
CNC(=S)N1C2CCC1CC(NC(=O)NC13CC4CC(CC(C4)C1)C3)C2 (stereo not drawn),·,-3,-8,-0.9,·,-12,9,·,·,·
Cc1cc(C)c(S(=O)(=O)N2CCN(C(=O)N(C)C)CC2)c(C)c1,-1.7,-3,-3,-1.0,·,-22,-1,18,7,2.0
S=C(Nc1ccc2c(c1)OCCO2)Nc1ccc2c(c1)OCO2,3.2,4,3,9.7,·,-8,-15,-3,-2,-3.6
O=C(C[n+]1ccccc1)N/N=C/c1ccco1,7.6,0,-1,2.4,i,-1,-12,9,13,1.0
